TRPML1 agonist: qHTS for Agonists of the Human Mucolipin Transient Receptor Potential 1 (TRPML1). AID 624414, 2012. hit rate 0.12% among 410,000. activation, % (test concentration not listed). TRPML1-expressing cells, Ca2+ dye fluorescence, FDSS; host cell line not named in the record; reference of the full effect not given here; in the data active = activation above about 50%; inconclusive = about 30% to 50%; inactive = below about 30%; also: 0% is about no effect; the text of the record puts the active cut at 80%
Target sequence (Q9GZU1 whole entry, looked up): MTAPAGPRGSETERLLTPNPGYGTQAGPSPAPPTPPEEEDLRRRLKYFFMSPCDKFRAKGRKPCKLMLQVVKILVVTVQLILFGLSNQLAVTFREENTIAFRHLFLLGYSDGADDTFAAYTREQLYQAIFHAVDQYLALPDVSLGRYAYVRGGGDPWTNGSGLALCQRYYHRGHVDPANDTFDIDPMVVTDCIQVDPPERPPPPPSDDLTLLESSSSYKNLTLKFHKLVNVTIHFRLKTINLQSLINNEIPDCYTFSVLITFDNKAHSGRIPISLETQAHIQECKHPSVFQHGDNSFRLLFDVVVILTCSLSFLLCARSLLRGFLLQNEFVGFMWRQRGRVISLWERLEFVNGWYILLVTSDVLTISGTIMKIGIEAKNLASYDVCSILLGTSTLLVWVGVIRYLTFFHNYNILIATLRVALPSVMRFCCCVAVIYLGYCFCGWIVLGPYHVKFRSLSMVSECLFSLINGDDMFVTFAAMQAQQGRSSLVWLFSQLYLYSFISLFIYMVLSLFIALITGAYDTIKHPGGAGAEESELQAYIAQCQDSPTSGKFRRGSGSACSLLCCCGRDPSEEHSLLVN
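TRPML1-DL cells, Tet-induced overnight (~16 h, 37 degrees C), loaded 45-90 min at room temperature with Ca8 no-wash calcium dye plus quencher. FDSS fluorescence: 10 s baseline, compound pin-transfer, 110 s agonist read, then EC80 54-4 (4uM final) and 110 s antagonist read.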
CtBP-E1A inh: qHTS Assay for Inhibitors of the CtBP/E1A Interaction; AlphaScreen GST-E1A/His-CtBP binding, 1536-well; hits give low values; control for the full effect not named in the record; activity change, % (test concentration not listed); hit rate 0.49% among 340,000; in the data active means activity change below about -65%; inconclusive means about -30% to -65%; inactive means above about -30%; also: % is scaled to controls: 0 for no effect and ±100 for the full control effect; compound concentration not given in the record
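Homogeneous bead-based format: GST-tagged E1A captured on glutathione donor beads, His-tagged CtBP on nickel acceptor beads; compounds precede bead addition by 2 h at 37 °C.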
D2 potentiator: Beta-Arrestin HTS for Positive Allosteric Modulators of the Human D2 Dopamine Receptor: Potentiators; D(2) dopamine receptor (Homo sapiens), P14416; DiscoveRx D2 beta-arrestin cells, luminescence, 90 min; 100% = 57 uM dopamine signal; potentiation, % (test concentration not listed); hit rate 0.23% among 360,000; active = potentiation of 50% or more; inconclusive = 30% to 50%; inactive = 30% or less;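 also: compound concentration not given in the record; tested on top of an EC20 dose of dopamine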
Target sequence (P14416 whole entry, looked up): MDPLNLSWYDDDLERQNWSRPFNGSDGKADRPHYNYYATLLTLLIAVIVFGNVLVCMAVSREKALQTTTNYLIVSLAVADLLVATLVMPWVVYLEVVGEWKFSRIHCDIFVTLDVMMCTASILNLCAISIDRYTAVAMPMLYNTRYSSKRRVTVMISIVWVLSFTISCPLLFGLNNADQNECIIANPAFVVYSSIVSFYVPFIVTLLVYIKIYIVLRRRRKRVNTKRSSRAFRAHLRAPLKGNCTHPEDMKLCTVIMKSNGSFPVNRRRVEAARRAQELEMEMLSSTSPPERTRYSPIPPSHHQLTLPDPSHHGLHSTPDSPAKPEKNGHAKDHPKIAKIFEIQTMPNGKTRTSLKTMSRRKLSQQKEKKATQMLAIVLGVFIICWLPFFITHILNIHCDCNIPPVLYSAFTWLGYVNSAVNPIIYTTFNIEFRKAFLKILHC
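D2 cells co-treated with compound plus 50 nM dopamine (EC20) for 90 min at 37 deg C to detect potentiation. Beta-arrestin recruitment was read as enzyme-fragment luminescence after 1 h at ambient temperature. Full response was set by 57 uM dopamine.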
TRPV1 PAM: HTS Assay for Compounds that Act as Potentiators of the Vanilloid Receptor 1; Transient receptor potential cation channel subfamily V member 1 (Homo sapiens), Q8NER1; TRPV1-expressing cells, Fluo-8 calcium influx, capsaicin EC20 potentiation; host cell line not named in the record; control for the full effect not named in the record; potentiation, % at 8.33 µM; hit rate 0.02% among 320,000; AID 540277, 2011; active means potentiation above 80%; inconclusive means 30% to 80%; inactive means below 30%; also: 0% is about no effect
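Fluo-8 calcium influx in TRPV1-expressing cells, kinetic read (ex 480/em 520 nm). Compound added and read 3 min for agonist activity, followed by capsaicin at EC20 final and 2 min further read for enhancement.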
TRPML1 inh: qHTS for Inhibitors of the Human Mucolipin Transient Receptor Potential 1 (TRPML1); Mucolipin-1 (Homo sapiens), Q9GZU1; TRPML1-inducible cells, Ca2+ dye fluorescence, FDSS; hits give low values; inhibition of EC80 agonist-evoked calcium signal; AID 624415, 2012; activity change, negative = inhibition, % (no concentration beside the values); hit rate 0.02% among 390,000; in the data active means activity change below about -50%; inconclusive means about -30% to -50%; inactive means above about -30%;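 also: stimulus is agonist 54-4 at its EC80 concentration; % is scaled to controls: 0 for no effect and ±100 for the full control effect; compound concentration not given in the record; the text of the record puts the active cut at -80%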
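TRPML1-DL cells, Tet-induced overnight (~16 h, 37 °C) at 1,500 cells/well, were loaded with Ca8 no-wash dye plus quencher for 45-90 min at room temperature. Compounds were pinned during FDSS kinetic reading; agonist 54-4 at EC80 (4 uM final) then added.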
Six1-Eya2 inh: qHTS Assay for Inhibitors of the Six1/Eya2 Interaction; hit rate 0.56% among 360,000; Homeobox protein SIX1 (Homo sapiens) + Protein phosphatase EYA2 (Homo sapiens), …; AlphaScreen GST-Six1/His-Eya2 binding, biochemical; hits give low values; control for the full effect not named in the record; activity change, % (concentration not given with the values); in the data active = activity change below about -65%; inconclusive = about -30% to -65%; inactive = above about -30%; also: % is scaled to controls: 0 for no effect and ±100 for the full control effect
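GST-Six1 + His-Eya2 (5X stock: 250/500 nM); Tris pH 8.0, 300 mM NaCl, 0.05% BSA, 0.02% Tween 20; GSH donor/Ni acceptor beads; 1 h 37 °C dark; AlphaScreen readout.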
An asterisk follows results filed as active; ? = inconclusive; · = not tested or not shown; & = joins results of further samples.

SMILES | TRPML1 agonist | CtBP-E1A inh | D2 potentiator | TRPV1 PAM | TRPML1 inh | Six1-Eya2 inh
Cc1ccc(OCCCC(=O)Nc2ccc3c(c2)OCCO3)cc1 | 0.6 | -1 | -2 | -19 | -7 | -9
Cc1cc(N(C)C)cc(C)[n+]1[O-] | -0.1 | 6 | -2 | -1 | 1 | 4
COc1ccc(NC(=O)Nc2cc(F)ccc2C)cc1 | -0.8 | 1 | -15 | -2 | 0 | -2
CC(=O)c1cc(C(c2csc(C(C)=O)c2)c2csc(C(C)=O)c2)cs1 | 0.6 | 2 | -6 | 23 | 0 | 5
Cc1noc(C)c1S(=O)(=O)N(C)C[C@H]1Oc2c(NC(=O)C3CCCCC3)cccc2C(=O)N([C@H](C)CO)C[C@@H]1C | 2.7 | 2 | 0 | · | -16 | 5
O=C(CCCN1C(=O)c2cccnc2C1=O)N1CC(=O)N(CCc2ccccc2)C(=O)C1 | -1.1 | 0 | -8 | 1 | 19 | -1
CCOC(=O)C1CCCN(C(=O)c2ccc3ncsc3c2)C1 (centres undefined) | 0.3 | -5 | -2 | · | 12 | 10
COC(=O)c1ccc(/C=C/c2ccc3cccc(OC)c3n2)cc1 | 2.1 | 45 | -4 | 9 | -9 | 58
O=C(COC(=O)/C=C/c1cccc(Cl)c1)NCCc1ccc(Cl)cc1Cl | 0.1 | -3 | 0 | -4 | 3 | 23
Cc1ccccc1-c1nnn(CC(=O)N2CCN(C(=O)c3ccco3)CC2)n1 | -0.3 | 17 | 11 | 3 | -11 | -2
CCOC(=O)N1CCN(C(=O)CCNS(=O)(=O)c2cc(Br)cnc2N)CC1 | 0.3 | -7 | -25 | 3 | -5 | 1
COCCCNC(=O)CSc1nc2ccccc2c(=O)n1Cc1ccc2c(c1)OCO2 | -0.5 | 8 | -3 | -14 | 18 | 0
COc1cc(-c2[nH]ncc2CN(C)Cc2cc(C)[nH]n2)cc(OC)c1OC | 0.4 | · | -13 | -8 | 2 | 1
CCOC(=O)C1CCCN(C(=O)c2sc3nc4n(c(=O)c3c2C)CCC4)C1 (centres undefined) | 0.0 | · | 8 | -2 | 8 | 0
O=C1C=C(c2ccc3[nH]ccc3c2)C[C@@H](c2ccc(Cl)cc2)C1 | 1.2 | -5 | -9 | -6 | 14 | -13
Cc1cc2nccc(-c3ccc(Cl)c([N+](=O)[O-])c3)n2n1 | 1.5 | 0 | 9 | ? | 24 | -2
COc1ccc(OCC2CCCN(Cc3nc(CC4CC4)no3)C2)cc1 (centres undefined) | 1.7 | -12 | -5 | 15 | 21 | -4
Cc1cccc(OC(=O)n2c(=S)oc3cc(Cl)ccc32)c1 | 4.2 | 4 | -14 | 4 | -5 | 35
CC(C)OCCCNC(=O)C1CCN(S(=O)(=O)N2CCCCC2)CC1 | 1.1 | 3 | -6 | -15 | -6 | 4
COc1ccccc1CNC(=O)C1CCN(S(C)(=O)=O)CC1 | -0.3 | -1 | 19 | 17 | -6 | 1
CCOc1ccc(NS(=O)(=O)c2ccc(OC)c(NC(=O)c3ccc4c(c3)OCCO4)c2)cc1 | -0.5 | -3 | -1 | 8 | -24 | -9
Cc1nnc(NC(=O)COc2ccccc2)s1 | -0.1 | 6 | -14 | 12 | 9 | 2
CC(C)(C)OC(=O)CNC(=O)c1[nH]cnc1C(=O)NCCCCCNC(=O)OC(C)(C)C | 0.2 | 1 | 19 | -2 | 3 | 3
COc1cc2c(cc1OC)C(c1cc(Br)ccc1O)N(C(C)=O)CC2 (centres undefined) | 0.4 | 2 | -4 | · | 9 | 3
COc1ccc(Nc2nnc(SCC(=O)N3CCCC3)s2)cc1 | 2.2 | 2 | 13 | 9 | 2 | -13
Cc1nn(C)c(Oc2ccc(Cl)cc2)c1C(=O)Nc1ccc(F)cc1F | 0.5 | 7 | 3 | · | -3 | 1
C=CCNC(=S)/N=c1/ccccn1CCC | 0.4 | 11 | -11 | -9 | 7 | -1
COc1ccc(C(=O)NC(=O)Nc2cc(C)ccn2)cc1 | 0.5 | 7 | -9 | -5 | -10 | 6
CC(c1ccccc1)N(CC(=O)NC1CCCCC1)S(=O)(=O)c1cccc(C(F)(F)F)c1 (centres undefined) | 1.2 | 3 | -11 | -15 | 3 | 17
COC(=O)Cc1cc(=O)n(-c2ccccc2)[nH]1 | 7.6 | -3 | 1 | 29 | 6 | -1
COc1ccc(S(=O)(=O)NC(C)(C)C)cc1-c1nnc2c3ccccc3c(C)nn12 | -0.4&0.3 | -3 | -6 | 3 | -4&3 | -6
Cc1cc(NC(=O)CCC(=O)N(c2ccccc2)C(C(=O)NC(C)(C)C)c2ccccc2Cl)no1 (centres undefined) | 0.7 | 0 | -8 | -6 | 7 | -19
N#C/C(=C\c1ccc(-c2ccc(S(=O)(=O)N3CCOCC3)cc2)o1)C(=O)NC1CC1 | -0.5 | ? | 1 | -3 | 5 | ?
O=C(O)c1cnc2[nH]c3ccccc3n2c1=O | 1.3 | 2 | -1 | -9 | 21 | 4
NC(N)=NS(=O)(=O)c1ccc(NC(=S)NC(=O)/C=C/c2ccccc2)cc1 | 0.1 | 4 | -4 | -4 | 4 | 0
Cc1ccc(CCSc2ccc(F)cc2)cn1 | 1.9 | -9 | -6 | · | -15 | 13
N#CC(C(=O)NCc1ccccc1)c1nc2ccccc2nc1N1CCCC1 (centres undefined) | 0.5 | -15 | -5 | 5 | -11 | -13
Cc1cccc(NC(=S)NNC(=O)c2cccc([N+](=O)[O-])c2)c1 | 2.5 | -10 | -15 | 4 | 12 | -2
COC(=O)[C@]1(C)N[C@H](CN(C)C(=O)c2ccccc2)[C@@H]2C(=O)N(Cc3ccccc3)C(=O)[C@@H]21 | 3.2 | 6 | -4 | · | 25 | 10
COc1ccccc1[C@@H]1C(c2cccc(Cl)c2)=NN(c2ccc(Br)cc2)[C@H]1C(=O)N1CCOC1=O | -0.2 | 7 | -28 | 19 | -3 | 13
CCS(=O)(=O)C1=NN2C(=N)/C(=C\c3ccc(SCc4ccco4)o3)C(=O)N=C2S1 | 4.9 | -9 | 5 | -3 | -14 | ?
O=C(COC(=O)/C=C/c1cccc(C(F)(F)F)c1)NC1CCS(=O)(=O)C1 (centres undefined) | 0.2 | · | -10 | -29 | 17 | -10
COc1ccccc1OCC(=O)NNC(=O)c1ccoc1C | -0.9 | -15 | -8 | 2 | 5 | 0
CCOC(=O)c1cc2c(=Cc3ccc(N(C)C)cc3)c3ccccc3n2[n+]1C | 1.3 | 0 | 27 | · | -14 | -69*
COc1ccc(CNC(c2ccccc2)c2ccc(Cl)cc2)cc1 (centres undefined) | 0.8 | 33 | -7 | 3 | 1 | 18
Cc1cc(CNC(=O)C2CCC(=O)N(Cc3ccccc3F)C2)nn1C (centres undefined) | 0.0 | -5 | 3 | 19 | -21 | 3
CCOc1ncccc1C(=O)NNC(=O)c1ccccc1-n1cccc1 | -0.1 | ? | -4 | 7 | -12 | -11
COc1cc(/C=N/N2C(=O)C3C4c5ccccc5C(c5ccccc54)C3C2=O)ccc1O (centres undefined) | 0.7 | -22 | -15 | 29 | 4 | 3
COc1cc(/C=N/Nc2nc(N3CCCC3)nc(N3CCCC3)n2)ccc1OCc1ccccc1F | 1.0 | -20 | -3 | -19 | 17 | -3
Cn1c(=O)c2c(ncn2CC(=O)Nc2nc(-c3ccc(F)c(F)c3)cs2)n(C)c1=O | 1.2 | · | -6 | 0 | 32 | -2
COc1ccc(CCc2nnc(CCC(=O)NCc3ccc4ncccc4c3)o2)cc1 | 0.3 | 22 | -4 | 3 | 9 | 0
COc1ccc(S(=O)(=O)N2CCOC23CCN(S(=O)(=O)c2cc(F)ccc2F)CC3)cc1 | 0.2 | 2 | 3 | -1 | 3 | -69*
COc1cccc(C(=O)Nc2cccc(-c3ccc(N4CCOCC4)nn3)c2)c1OC | -0.6 | ? | 22 | -22 | -7 | -18
CCn1c(SCC(=O)NCCc2ccccc2)nnc1C(C)C | -0.1 | 1 | -8 | -7 | 9 | 5
CC(=O)Nc1cccc(OCC(=O)Nc2sccc2C(N)=O)c1 | 1.2 | -13 | 3 | -16 | 10 | -5
COc1cccc(CSc2nc3sc(C)c(C)c3c(=O)n2Cc2ccco2)c1 | -0.2 | -1 | -3 | 9 | 4 | -1
N#C/C(=C\Nc1ccc(F)c(Cl)c1)C(=O)C1CC1 | 0.2 | · | 1 | -11 | -10 | 1
Cc1cc2cc(CNC(=O)c3ccc(Br)o3)ccc2[nH]1 | -0.3 | -11 | -6 | -1 | 14 | -28
Cc1ccc(-c2nc(NCCN(C)C)c3ccccc3n2)cc1 | 0.9 | -25 | -32 | -24 | -9 | -9
CC(C)Cn1c(C(C)NC(=O)Cc2ccccc2)nc2ccccc21 (centres undefined) | 2.0 | 7 | -5 | -26 | 8 | 28

Entries listed so far marked active in Six1-Eya2 inh.
molecule	CtBP-E1A inh	D2 potentiator	TRPML1 inh	Six1-Eya2 inh
CCOC(=O)c1cc2c(=Cc3ccc(N(C)C)cc3)c3ccccc3n2[n+]1C	0	27	-14	-69*
COc1ccc(S(=O)(=O)N2CCOC23CCN(S(=O)(=O)c2cc(F)ccc2F)CC3)cc1	2	3	3	-69*

Later entries
SMILES | TRPML1 agonist | CtBP-E1A inh | D2 potentiator | TRPV1 PAM | TRPML1 inh | Six1-Eya2 inh
Cc1nc2ccccc2c(=O)n1NC(=O)c1ccccc1F | 1.0 | · | -13 | -3 | 14 | 0
O=C(Nc1nc2ccccc2s1)c1ccccc1[N+](=O)[O-] | -0.2 | 9 | -2 | -6 | 8 | -7
CC1Cc2cc(S(=O)(=O)N3CCC(C(=O)N(C)Cc4ccccc4)CC3)ccc2N1C(=O)C1CC1 (centres undefined) | 1.7 | 1 | -3 | -1 | -15 | -3
NC(N)=NC(N)=Nc1ccc(O)cc1 | 0.2 | · | -14 | -16 | 6 | 2
COc1cc(C(=O)COC(=O)c2ccc([N+](=O)[O-])o2)cc(OC)c1OC | -0.4 | 6 | 18 | · | 10 | 0

Some of these compounds in order of molar mass, highest first.
SMILES | TRPML1 agonist | CtBP-E1A inh | D2 potentiator | TRPV1 PAM | TRPML1 inh | Six1-Eya2 inh
O=C(COC(=O)/C=C/c1cccc(Cl)c1)NCCc1ccc(Cl)cc1Cl | 0.1 | -3 | 0 | -4 | 3 | 23
CC(C)Cn1c(C(C)NC(=O)Cc2ccccc2)nc2ccccc21 (centres undefined) | 2.0 | 7 | -5 | -26 | 8 | 28
CCn1c(SCC(=O)NCCc2ccccc2)nnc1C(C)C | -0.1 | 1 | -8 | -7 | 9 | 5
COC(=O)c1ccc(/C=C/c2ccc3cccc(OC)c3n2)cc1 | 2.1 | 45 | -4 | 9 | -9 | 58

Assay outcomes from PubChem BioAssay.
